Ecoli rRNA inh – reduced GFP signal of wild-type E. coli, primary screen, bacterial rRNA inhibitor project, GFP/RFP fluorescence, OD600, single point | 350,000 tested, 1.6% active | E. coli WT GFP vs humanized-ribosome RFP mutants, 24 h; active compounds read low; DMSO median 0, no signal -100 | GFP signal change (wild-type ribosome), % (no concentration beside the values);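 active = significant combined selectivity score with lowered wild-type GFP, culture density cut under 30%, mutant RFP and density less affected; inactive = any of these conditions unmet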; also: one replicate is shown; some compounds called inactive have numbers as strong as hits
Ecoli growth – E. coli growth inhibition, primary screen, OD600. Escherichia coli growth, 23 h; active compounds read low. OD600 absorbance (no concentration beside the values). 330,000 tested, 0.21% active;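 active = OD600 absorbance below the run mean of sample wells minus 3.6 SD, in any replicate, cut at about 0.56 in these data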;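 also: stock transfer was 300 nL into about 60 µL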
ALR inh – inhibitors of human ALR sulfhydryl oxidase, primary screen, biochemical, H2O2 detection, HRP-luminol luminescence, single point; FAD-linked sulfhydryl oxidase ALR (Homo sapiens), P55789; purified ALR, DTT oxidation; inhibition, % (no concentration beside the values); 290,000 tested, 3.8% active;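 active = mean and each replicate at 75% or more; inconclusive = only one of the two met; inactive = neither met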;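 also: stock transfer was 7.5 nL into about 7.5 µL; 0% = neutral wells and 100% = wells with inactivated enzyme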
Target sequence (P55789 whole entry, looked up): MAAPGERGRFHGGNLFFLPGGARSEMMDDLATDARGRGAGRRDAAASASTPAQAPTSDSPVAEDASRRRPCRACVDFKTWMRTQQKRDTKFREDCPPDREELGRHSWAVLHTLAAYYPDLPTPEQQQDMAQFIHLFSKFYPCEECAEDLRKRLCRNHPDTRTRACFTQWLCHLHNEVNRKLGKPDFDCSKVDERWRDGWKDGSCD
Vif TR-FRET – inhibitors of Vif binding to APOBEC3G peptide, primary screen, biochemical, TR-FRET, GST-Vif 1-94, biotin-A3G peptide, dose response retest (AID 1117319) | Virion infectivity factor (Human immunodeficiency virus type 1 group M subtype B (isolate … | TR-FRET GST-Vif / biotin-A3G peptide binding; higher % means a stronger effect; test concentration not given here; strong numbers were not always called active | one-dose inhibition, %; IC50 in µM for titrated hits | 260,000 tested, 0.57% active;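 active = above the screen mean plus three standard deviations and confirmed in dose response; inconclusive = results disagree or hit not tested in dose response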;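 also: Vif residues 1-94 fused to GST binding biotinylated APOBEC3G peptide 110-148; 0% = full assay without inhibitor and 100% = GST in place of GST-Vif; retest series ran down from 100 µM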
FGF22 binding – binders of human FGF22 protein, primary screen, FGF22 synaptogenesis inhibitor project, biophysical, thermal shift, single point; Fibroblast growth factor 22 (Homo sapiens), Q9HCT0; recombinant FGF22 thermal shift, SYPRO orange fluorescence; percent of sucrose octasulfate shift, DMSO zero; calls only at 9.99 µM; 340,000 tested, 1.5% active; AID 651658, 2012;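 active = melting point raised past a set limit in the mean and every replicate; inconclusive = no clear call; three in four hits are not shown here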
Target sequence (Q9HCT0 whole entry, looked up): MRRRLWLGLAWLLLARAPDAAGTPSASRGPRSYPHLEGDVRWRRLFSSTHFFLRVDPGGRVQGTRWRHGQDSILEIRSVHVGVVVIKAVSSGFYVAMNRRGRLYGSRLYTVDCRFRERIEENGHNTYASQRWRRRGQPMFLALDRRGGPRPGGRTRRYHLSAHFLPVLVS
HNF4A DNA FP – change in binding of human HNF4A to DNA, primary screen, biochemical, fluorescence polarization, FITC-DNA; 360,000 tested, 0.3% active; activity change, % at 10 µM; Hepatocyte nuclear factor 4-alpha (Homo sapiens), P41235; 1 h; in the data active = activity change above about 30%, passing the limit was not always enough;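 also: controls were the assay level and a saturating level of protein; the project sought stronger binding though the title names inhibitors; some compounds called inactive have numbers as strong as hits; positive values seem to mean higher polarization but the record does not say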
Target sequence (P41235 whole entry, looked up): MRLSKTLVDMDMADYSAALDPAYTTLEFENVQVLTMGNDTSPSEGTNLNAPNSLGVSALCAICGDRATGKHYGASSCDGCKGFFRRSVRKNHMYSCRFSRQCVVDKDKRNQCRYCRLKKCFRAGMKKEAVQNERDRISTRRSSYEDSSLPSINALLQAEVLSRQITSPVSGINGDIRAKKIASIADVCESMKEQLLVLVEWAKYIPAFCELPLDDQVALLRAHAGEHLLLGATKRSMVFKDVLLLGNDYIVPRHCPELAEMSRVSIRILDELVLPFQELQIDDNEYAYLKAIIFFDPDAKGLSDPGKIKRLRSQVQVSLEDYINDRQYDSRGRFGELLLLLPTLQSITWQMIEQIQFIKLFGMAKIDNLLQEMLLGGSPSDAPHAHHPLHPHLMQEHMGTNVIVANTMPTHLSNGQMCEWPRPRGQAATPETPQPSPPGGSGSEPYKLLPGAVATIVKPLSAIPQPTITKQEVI
MLL AF4-AF9 inh – inhibitors of AF4 peptide binding to AF9, primary screen, biochemical, AlphaScreen, biotin-AF4 peptide, FLAG-AF9, single point; Protein AF-9 (Homo sapiens), P42568; inhibition, % at 10 µM; 350,000 tested, 0.47% active; AID 651704, 2012;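 active = every replicate reaching a set inhibition limit, whatever the replicate mean, cut at about 25% in these data; inconclusive = mean inhibition reaches that limit but some replicates miss it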;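 also: 0% = plate neutral control median and 100% = total signal loss; the record names both 10 and 1 µM as test concentration; the first replicate is given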
Ecoli rRNA inh OD600 – recorded beside Ecoli rRNA inh, whose call it bears; OD600 change, %; measured here: OD600 growth;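 optical density of the mix in the first replicate; 0 = DMSO median and -100 = no signal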
Ecoli rRNA inh RFP – second read-out of Ecoli rRNA inh, no call of its own (marks repeat the call); RFP signal change, %; measured here: RFP humanized mutant strains;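 first replicate; 0 = DMSO median and -100 = no signal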
* hit, by the source's call; i = inactive; u = inconclusive; x = no result given; & = joins results of further samples. A portion of the library; rates above refer to the full screens.

no.	smiles	Vif TR-FRET	MLL AF4-AF9 inh	FGF22 binding	HNF4A DNA FP	Ecoli growth	Ecoli rRNA inh	ALR inh	Ecoli rRNA inh RFP	Ecoli rRNA inh OD600
1	COc1cccc(CNc2nc3cc(-c4ccc(F)cc4)sc3c(=O)n2C)c1	x	-4.9	i	-3.8	x	-2	x	2.5	-12
2	Cc1c(C(c2cc(O)ccc2O)c2c(C)n(C)n(-c3ccccc3)c2=O)c(=O)n(-c2ccccc2)n1C	1%	0.2	i	-5.2	x	16	x	8.0	9
3	Cc1ccc(S(=O)(=O)N2CCC(C(=O)NCc3ccccc3CN3CCCC3)CC2)cc1	x	1.5	i	3.8	0.67	10	-5	-0.6	15
4	CSc1nnc(-c2cnccn2)n1CCCN1CCCC1=O	3%	x	x	-1.1	0.65	x	-5	x	x
5	O=C(NCc1ccc(Cl)c(Cl)c1)c1cccnc1	0%	x	x	-0.5	0.66	x	-2	x	x
6	O=C(Nc1ccccc1F)c1cc2nc(C(F)F)cc(C(F)F)n2n1	15%	x	x	-0.4	0.74	x	-10	x	x
7	Cc1nc(-c2ccccc2)nn1-c1ccc([N+](=O)[O-])cc1	x	5.3	i	2.8	0.68	21	-11	-0.2	16
8	COc1cccc(OCCOCC(O)CN2CCN(Cc3ccc(Cl)cc3)CC2)c1 (configuration not stated)	21%	3.5	i	-2.2	0.7	5	-10	6.3	-5
9	COCCn1c(C)cc(C(=O)CSc2nc(C)cc(C)c2C#N)c1C	22%	x	x	-2.4	0.72	x	2	x	x
10	Cn1c(SCC(=O)Nc2ccc(C(=O)O)cc2)nc2scc(-c3ccccc3Cl)c2c1=O	-17%	4.5	x	-1.9	0.67	-34	1	-8.7	-32
11	O=C(CC1CC1)N1CC2(C1)[C@@H](c1ccccc1)[C@@H](CO)N2C(=O)C1CCOCC1	x	-0.7	i	x	x	4	x	0.4	0
12	Cc1cc(OC(C)C(=O)Nc2ccc(S(=O)(=O)Nc3onc(C)c3C)cc2)cc(C)c1Cl (configuration not stated)	-5%	-0.5	i	1.1	0.7	-11	98*	0.2	-29
13	CCOC(=O)c1cc(NC(=O)Cc2ccc(S(=O)(=O)N3CCOCC3)s2)cc(C(=O)OCC)c1	-3%	-3.5	i	6.3	0.7	-7	3	14	-9
14	CCn1cc(C(=O)NCCCOC(C)C)c(=O)c2cc(S(=O)(=O)N3CCCC3)ccc21	x	1.4	i	0.6	0.68	-4	1	-1.5	5
15	O=C(NCc1ccncc1)C(=O)NCC1OCCCN1S(=O)(=O)c1cc(F)ccc1F (configuration not stated)	x	1.9	i	-1.0	0.7	-2	0	0.5	-10
16	O=c1[nH]c2ccc(NCc3ccc(F)cc3)cc2[nH]1	x	2.3	i	-0.2	0.67	-7	100*	-3.3	-4
17	O=C(C1=C(O)C(=O)N(CCOCCO)C1c1cccs1)c1cccs1 (configuration not stated)	u	x	x	-1.0	0.75	x	-3	x	x
18	COc1ccc(NC(=O)N(C)C[C@@H]2Oc3ccc(NC(=O)Cc4cn(C)c5ccccc45)cc3CC(=O)N([C@H](C)CO)C[C@H]2C)cc1	x	0.1	i	x	x	5	x	-1.0	11
19	O=C(C[C@@H]1C=C[C@H](NS(=O)(=O)c2ccc(F)cc2)[C@H](CO)O1)NCCN1CCCCC1	x	-0.5	i	x	x	3	x	-1.4	8
20	C[C@@H]1CN([C@H](C)CO)C(=O)Cc2cc(NC(=O)Nc3ccccc3)ccc2O[C@H]1CN(C)C(=O)Nc1ccc(F)cc1	x	0.0	i	x	x	1	x	0.0	0
21	CCOC(=O)Cn1c(CN2CCN(C(=O)c3ccco3)CC2)nc2c1c(=O)n(C)c(=O)n2C	x	-0.7	i	0.4	0.71	1	-1	1.0	2
22	CCN(CC)CCCNC(=O)c1ccc(OCC(=O)Nc2ccccc2C(F)(F)F)c(OC)c1	-4%	-14	i	4.0	0.72	-1	-8	1.3	-3
23	C[C@@H]1CCCCO[C@@H](CN(C)S(=O)(=O)c2ccc(F)cc2)[C@@H](C)CN([C@H](C)CO)C(=O)c2cc(NS(=O)(=O)c3ccccc3)ccc2O1	x	-2.3	i	x	x	4	x	-0.4	-1
24	COc1ccc(CNC(=O)CSc2nn3c(=O)c(C(C)(C)C)nnc3s2)cc1OC	x	3.5	i	0.4	0.66	-14	11	0.8	-13
25	CC1CCc2nc(NC(=O)Cc3cccs3)sc2C1 (configuration not stated)	5%	x	x	1.5	0.76	x	x	x	x

Following part
no.	smiles	Vif TR-FRET	MLL AF4-AF9 inh	FGF22 binding	HNF4A DNA FP	Ecoli growth	Ecoli rRNA inh	ALR inh	Ecoli rRNA inh RFP	Ecoli rRNA inh OD600
26	CCCC(CCC)C(=O)OC1C[C@H]2CC[C@@H](C1)[N+]2(C)C (some centres not stated)	7%	-9.3&-2.6	i	-3.0	x	x	-4	x	x
27	CCOC(=O)c1ccc(Nc2cnc3ccccc3n2)cc1	-17%	-2.3	i	1.8	0.72	9	x	2.8	-1
28	CCc1ccc(NC(=O)C/C(C)=N/NC(=O)COc2ccccc2C)cc1	x	-2.1	i	4.2	x	7	0	-0.1	4
29	CCC(=O)NC[C@H]1[C@@H](c2ccccc2)[C@@H](CO)N1C(=O)C1CC1	x	-7.0	i	x	x	5	x	-0.1	16
30	COc1ccc(OC(C)C(=O)NC2CCCCCC2)cc1 (configuration not stated)	0%	-0.6	i	0.5	0.68	9	6	-0.5	5
31	COc1ccc2c3c(n(C)c2c1)[C@H](CO)NCC31CCN(Cc2ccccc2Cl)CC1	x	8.9	i	x	x	7	x	0.7	13
32	O=C(CCNC(=O)c1ccccc1)N=Nc1c(O)[nH]c2ccccc12	0%	-1.4	i	x	0.69	5	-2	0.1	8
33	Brc1ccc(C2CC(c3ccccc3)=Nc3ccccc3N2)cc1 (configuration not stated)	-4%	x	x	14	0.69	x	-14	x	x
34	CCC(=O)N(C)C[C@H]1Oc2ncc(-c3ccccc3OC)cc2C(=O)N([C@@H](C)CO)C[C@H]1C	x	-1.2	i	x	x	0	x	-1.3	0
35	CC(Sc1nc(-c2ccccc2)cc(=O)[nH]1)C(=O)O (configuration not stated)	14%	x	x	1.9	0.67	x	-2	x	x
36	Nc1nc(CN2CCN(c3ccccc3F)CC2)nc(Nc2ccccc2)n1	32%	x	x	1.7	0.71	x	7	x	x
37	Cc1ccc(Cl)cc1NC(=O)COC(=O)CC1CCCCC1	-4%	-9.3	i	-1.0	0.68	-6	0	-2.0	-21
38	CC1CCN(C(=O)CN(c2ccc(Cl)c(C(F)(F)F)c2)S(C)(=O)=O)CC1	3%	x	x	4.2	0.68	x	-2	x	x
39	Nn1c(SCC(=O)N2CCN(S(=O)(=O)c3ccccc3)CC2)nnc1-c1cccs1	-2%&0%	x	x	-1.2	0.74	x	3	x	x
40	COc1ccc(C2SCC(=O)N2c2c(C)n(C)n(-c3ccccc3)c2=O)cc1 (configuration not stated)	-5%	x	x	3.1	0.68	x	-17	x	x
41	N#CCCCC#Cc1ccc2c(c1)COc1c3ccccc3nn1-2	x	1.6	i	-2.0	0.7	-29	x	-16	-46
42	CC(C)C#Cc1ccc2c(c1)O[C@@H](CN(C)Cc1cccnc1)[C@H](C)CN([C@H](C)CO)S2(=O)=O	x	10	i	x	x	-37	x	1.9	-61
43	CCOC(=O)C1CCN(C(=O)COc2ccc(S(=O)(=O)NC(C)C)cc2Cl)CC1	2%&-1%	x	x	-0.3	0.79	x	-3	x	x
44	N/C(CN1CCSCC1)=N\OCc1c(F)cccc1Cl	-6%	0.0	i	-2.1	0.67	1	-8	5.8	6
45	Cc1cccc2c(C(=O)N3CCN(c4ccccn4)CC3)cc(-c3cccc(Br)c3)nc12	x	3.7	i	10	0.74	8	-9	4.9	17
46	CC(C)CC1C(=O)N(Cc2cn(CCC3OCCO3)nn2)CCS(=O)(=O)N1Cc1ccc(-c2ccccc2)cc1 (configuration not stated)	0%	2.4	i	1.4	x	-6	x	-9.4	-5
47	C/C(=N\NC(=O)Cc1cccn1C)c1ccc2ccccc2c1	16%	x	x	-2.3	x	x	0	x	x
48	COc1cccc(-c2nnc(NC(=O)c3ccc(S(=O)(=O)N4CC(C)OC(C)C4)cc3)o2)c1 (configuration not stated)	2%	x	x	-0.9	0.72	x	12	x	x
49	CN(C)Cc1c(O)ccc2c(=O)c(-c3ccccc3Cl)coc12	x	-7.4	i	3.5	0.62	7	0	-1.1	10
50	Cc1c(NS(=O)(=O)c2cc(C(=O)N3CCCC(C)C3)ccc2Cl)c(=O)n(-c2ccccc2)n1C (configuration not stated)	-8%	-7.7	i	-2.2	0.67	8	6	-1.2	2

Next part; the last 2 above are carried over.
no.	smiles	Vif TR-FRET	MLL AF4-AF9 inh	FGF22 binding	HNF4A DNA FP	Ecoli growth	Ecoli rRNA inh	ALR inh	Ecoli rRNA inh RFP	Ecoli rRNA inh OD600
49	CN(C)Cc1c(O)ccc2c(=O)c(-c3ccccc3Cl)coc12	x	-7.4	i	3.5	0.62	7	0	-1.1	10
50	Cc1c(NS(=O)(=O)c2cc(C(=O)N3CCCC(C)C3)ccc2Cl)c(=O)n(-c2ccccc2)n1C (configuration not stated)	-8%	-7.7	i	-2.2	0.67	8	6	-1.2	2
51	O=C(O)c1cc(-c2ccccn2)n[nH]1	-9%	x	x	-0.4	0.76	x	0	x	x
52	CCc1nc2ccc(C(=O)NCCOc3ccc(OC)cc3)cn2c1N(CC)CCOC	x	-2.6	i	-1.5	x	0	x	1.7	-1
53	O=C(NCc1cccs1)C1CC(c2ccccc2O)=NO1 (configuration not stated)	-1%	-32	i	2.3	0.64	4	18	0.4	6
54	COc1ccc(N(CCCN2C(=O)c3cccc4cccc(c34)C2=O)C(=O)c2ccncc2)cc1	-10%	8.2	i	-2.1	0.67	-29	-13	-9.7	-45
55	CC(C)NC(=O)COC(=O)c1ccc(Cl)c(S(=O)(=O)N2CCCC2)c1	6%	x	x	-1.2	0.72	x	2	x	x
56	N#Cc1ccc(OCC(O)CN2CCN(C(c3ccccc3)c3ccccc3)CC2)cc1 (configuration not stated)	2%	0.6	i	1.4	0.7	-66	-6	-18	-76
57	COc1ccc([C@@H]2CC=C(C(=O)O)[C@H](c3ccccc3)N2S(=O)(=O)c2ccc(C)cc2)cc1OC	x	2.8	i	1.2	x	-5	4	-5.6	-1
58	COCC(=O)Nc1ccc2c(c1)[C@@H]1C[C@H](CC(=O)NCc3ccc(-c4ccccc4)cc3)O[C@H](CO)[C@@H]1O2	x	-1.7	i	x	x	-3	x	0.1	-3
59	O=C(NN=C1CCCC1)c1cc(Br)ccc1O	x	0.1	i	2.6	0.68	-6	75	-2.9	-9
60	CCCNC(=O)N(C)C[C@@H]1Oc2cc(C#CC(C)(C)O)ccc2S(=O)(=O)N([C@@H](C)CO)C[C@@H]1C	x	-1.7	i	x	x	-1	x	1.3	0

Copied from the list:
Ecoli growth, O=C(NCc1cccs1)C1CC(c2ccccc2O)=NO1 (configuration not stated) = 0.64
MLL AF4-AF9 inh, COc1ccc([C@@H]2CC=C(C(=O)O)[C@H](c3ccccc3)N2S(=O)(=O)c2ccc(C)cc2)cc1OC = 2.8
Ecoli rRNA inh OD600, COCC(=O)Nc1ccc2c(c1)[C@@H]1C[C@H](CC(=O)NCc3ccc(-c4ccccc4)cc3)O[C@H](CO)[C@@H]1O2 = -3

Bioassay records deposited in PubChem by several laboratories.
